Sfp inh – blocks B. subtilis Sfp PPTase activity. Q9F4F7. Biochemical Sfp PPTase activity, qHTS. Potency, µM, for inactives: max response, negative = inhibition, most hits filed as inhibitors. 310,000 compounds, 3.5% hits; active = well fitted inhibition curve with a large enough effect; inconclusive = small, poorly fitted or top-dose-only effect, or another doubt; inactive = no such curve, though single readings can be large or run the other way;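 also: the enzyme is Sfp with the accession as filed and its product quenches rhodamine fluorescence; potency is read from the fitted curve at half-maximal effect; 0% = enzyme reaction without inhibitor and -100% = no enzyme wells; top concentration of the series not given in the record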
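Compounds were incubated with enzyme (final 15 nM) for 15 min at room temperature before substrate addition started the reaction. Fluorescence at 525 nm excitation, 598 nm emission was recorded immediately and after 30 minutes.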
gsp ag – activates gsp, the McCune-Albright syndrome mutation; Potency, µM (highest dose often 76.9 µM), inactives show at the highest dose activation (cAMP increase), hits mostly activators; gsp mutant cells, cAMP HTRF, 30 min; control for the full effect not named in the record; AID 624287; 340,000 compounds, 0.13% hits; active = well fitted activation curve with a large enough effect; inconclusive = small, poorly fitted or top-dose-only effect, or another doubt; inactive = no such curve, though single readings can be large or run the other way; cell line not stated here;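 also: phosphodiesterase inhibitor Ro 20-1724 added with compounds to block cAMP breakdown; potency is read from the fitted curve at half-maximal effect; nearly all actives have a fitted effect of over 60% in size; about a fifth of the inactives were tested at one dose only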
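Cells stably selected in G418 were plated at 2000/well, grown 16-24 hr, then given compounds in DMSO with the PDE inhibitor […] (300 uM solution added) for 30 min at 37C; cAMP was read by HTRF.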
Menin-MLL FL inh – displaces fluorescein MLL peptide from human menin | Fluorescence polarization, fluorescein-MLL peptide displacement from menin | FP activity change, % at 61.4 µM | 290,000 tested, under 10 active; inconclusive = falling polarisation curve, or a change in total fluorescence; inactive = total fluorescence flat and polarisation flat or rising; no compound was filed as active; the % refers to the polarisation; negative = inhibition;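 also: % of control where 0% means no effect; inhibitors lower the polarisation; unlabelled MLL peptide was the positive control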
ClpP mod – qHTS Assay for Activators of ClpP | purified B. subtilis ClpP, FRET peptide cleavage, 20 min | Potency, µM (highest dose often 57.5 µM), for inactives: top-dose activity change, negative = active | 340,000 compounds, 1.9% hits | ATP-dependent Clp protease proteolytic subunit (Bacillus subtilis (strain 168)), P80244; active = well fitted falling curve with a large enough effect; inconclusive = small, poorly fitted or top-dose-only effect; inactive = no such curve, though single readings can be large or run the other way; also: potency is read from the fitted curve at half-maximal effect; the source files actives as falling curves though it sought activators and does not explain the sign; nearly all actives have a fitted effect of over 65% in size; many hits overshoot -100%
Target sequence (P80244 whole entry, looked up): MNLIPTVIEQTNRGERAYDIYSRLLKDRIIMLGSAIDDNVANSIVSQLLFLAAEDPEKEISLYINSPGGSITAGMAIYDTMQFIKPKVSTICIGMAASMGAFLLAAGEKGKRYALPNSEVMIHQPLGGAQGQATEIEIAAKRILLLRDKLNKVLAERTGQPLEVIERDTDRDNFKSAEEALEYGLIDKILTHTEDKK
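ClpP 10 microg/mL final, pH 8 Tris/KCl buffer with BSA, glycerol, Tween-20; compound pinned in; FRET-FV substrate; RT 20 min; Ex320/Em430; ΔFRET vs ADEP 5.8 microM, DMSO, no enzyme.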
D2 agonist – agonists of human D2 dopamine receptor (beta-arrestin); 360,000 compounds, 0.084% hits; activation, % (test concentration not listed); P14416; DiscoveRx PathHunter D2 beta-arrestin, luminescence, 90 min; 100% = 57 uM dopamine signal; in the data active = activation above about 40%; inconclusive = about 15% to 40%; inactive = below about 15%; also: compound concentration not given in the record; the text of the record calls up to 30% inactive
Target sequence (P14416 whole entry, looked up): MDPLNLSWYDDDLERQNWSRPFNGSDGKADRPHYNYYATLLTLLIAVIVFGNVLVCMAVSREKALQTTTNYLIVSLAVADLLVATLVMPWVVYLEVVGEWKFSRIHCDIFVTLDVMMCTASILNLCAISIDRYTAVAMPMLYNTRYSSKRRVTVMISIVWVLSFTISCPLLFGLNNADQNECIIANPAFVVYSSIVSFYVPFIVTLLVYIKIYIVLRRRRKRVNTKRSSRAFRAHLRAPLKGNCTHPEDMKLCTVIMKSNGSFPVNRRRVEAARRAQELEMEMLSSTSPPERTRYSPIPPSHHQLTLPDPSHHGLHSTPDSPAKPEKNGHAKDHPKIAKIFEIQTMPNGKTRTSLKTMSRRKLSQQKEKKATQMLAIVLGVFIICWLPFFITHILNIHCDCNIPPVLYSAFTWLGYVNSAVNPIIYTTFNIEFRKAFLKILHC
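DiscoveRx PathHunter D2 beta-arrestin cells (2,100/well) attached overnight, then compound-stimulated 90 min at 37 C in HBSS/10 mM HEPES/0.1% Tween-20 buffer; beta-galactosidase complementation read by luminescence after 1 h at ambient temperature. Dopamine 57 uM final (EC100) as control.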
gsp antag – antagonizes gsp, the McCune-Albright syndrome mutation. gsp-mutant cells, cAMP HTRF, 30 min; control for the full effect not named in the record. Potency, µM (top dose mostly 76.9 µM), inactives show at the highest dose activity change, negative = inhibition, usual class: inhibitors. 340,000 compounds, 0.4% hits; active = falling curve of any shape with a large fitted effect; inconclusive = falling curve, mostly with a smaller effect; inactive = flat or rising curve; cell line not stated here;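 also: intracellular cAMP measured with PDE inhibitor Ro 20-1724 present during compound exposure; potency is read from the fitted curve at half-maximal effect; % is scaled to controls: 0 for no effect and ±100 for the full control effect; nearly all actives have a fitted effect of over 65% in size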
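Cells, 2000/well, grown 16–24 h in DMEM 10% FBS with 0.5 mg/ml G418, then compounds plus […] (300 uM addition stock), 30 min at 37C. cAMP read by HTRF (cAMP-d2 and anti-cAMP antibody-K in lysis buffer) after 30 min RT.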
PINK1 modulator – PINK1 expression modulation; PINK1 immunofluorescence, high-content cytometry, 24 h; Potency, µM (titrated, usually from 76.6 µM), for inactives: at the highest dose activation (PINK1 increase), hits mostly activators; 410,000 compounds, 0.2% hits; active = well fitted activation curve with a large enough effect; inconclusive = small, poorly fitted or top-dose-only effect; inactive = flat fitted curve, though single readings scatter; cell line not stated here;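 also: potency is read from the fitted curve at half-maximal effect; % of control where 0% means no effect; nearly all actives have a fitted effect of over 65% in size; a mitochondrial uncoupler was the plate control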
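Stable cell line treated 24 h with compounds at 5 concentrations (CCCP controls), then fixed and immunostained for PINK1 plus nuclear and cell stains; PINK1 immunofluorescence quantified by laser-scanning microplate cytometry.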
Active calls of the source: *; ? = inconclusive; / = not tested or not shown; & = joins results of further samples; [ ] = another dose, or the depositor's remark.

SMILES	Sfp inh	gsp ag	Menin-MLL FL inh	ClpP mod	D2 agonist	gsp antag	PINK1 modulator
CCOc1ccc(NS(=O)(=O)c2ccc(OC)c(NC(=O)c3ccc4c(c3)OCCO4)c2)cc1	-4.0%	-6.0%[15.4 µM]	0.1	-27.8%	0.7	-3.0%	2.5%
O=C(NCCN1CCOCC1)c1cc(Cl)ccc1Cl	1.4%	?	4.3	-0.3%	-5.1	6.7%	0.8%
C=CCN1CCN(C(c2ccc(Cl)cc2)c2nnnn2CCc2ccc(OC)c(OC)c2)CC1 (configuration not stated)	3.9%	?	0.4	1.7%	-3.1	4.7%	-0.7%
CCOC(=O)C1CCN(C(=O)Nc2ccc3c(c2)nc(C)n3C)CC1	15.3%	10.3%	2.5	-3.6%	1.1	0.3%	?
CCCCN1C[C@H](Cc2ccccc2)[C@@H](CC(=O)Nc2ccc(OC)cc2)C1=O	/	-63.9%	/	-0.2%	-4.0	/	-2.2%
COc1ccc(CNC(=O)c2cc(SC)ccc2Cl)cc1OC	26.3%	-32.1%	-0.5	-0.5%	5.5	-3.3%	0.4%
Cc1nc(C)c(-c2csc(Nc3cccc(O)c3)n2)s1	-7.2%	-16.1%[15.4 µM]	-0.4	/	-2.3	-21.6%	3.1%
O=C1OCCN1C(=O)[C@H]1[C@H](c2ccccc2)C(c2cccc(Cl)c2)=NN1c1ccc(Br)cc1	17.7%	/	?	4.2%	0.8	2.4%	6.0%
COC(CNC(=O)CN1C(=O)COc2ccc(S(=O)(=O)N3CCOCC3)cc21)OC	6.6%	27.9%	/	1.0%	1.1	-0.1%	-0.5%
O=C(O)CNC(=O)c1ccc(NC(=O)/C(=C/c2ccccc2)NC(=O)c2ccco2)cc1	-7.4%	-18.8%	-1.3	-1.5%	-6.4	5.3%	0.2%
O=C(NCCc1cccs1)C1CC(c2ccccc2[N+](=O)[O-])=NO1 (configuration not stated)	22.4%	/	-1.2	0.8%	-1.0	0.7%	0.7%
Cc1cc(C(=O)Oc2cccnc2)ccc1[N+](=O)[O-]	14.3%	23.6%	1.1	/	-6.8	0.7%	0.3%
C=CCC[C@@H](Cc1ccc(F)cc1)C(=O)OC[C@@H]1CCCN1C(=O)[C@H](CC=C)CC(=O)N[C@H](CO)Cc1ccccc1	/	/	/	1.0%	1.2	-17.2%	-0.6%
COc1ccc(CSc2nnnn2C)cc1[N+](=O)[O-]	17.3%	?	-0.8	0.5%	-2.8	5.8%	-4.4%
CCC(CC)C(=O)N(C)c1c(C)nc2c(OCc3ccccc3OC)cccn12	/	/	/	1.3%	7.7	/	-0.3%
Cc1ccc(NC(=O)NC2CCCCCCC2)cc1	10.3%	-24.5%	/	-1.4%	0.4	-17.1%	3.3%
Cc1cc(CN(C)C(=O)c2cc(COc3ccc(F)cc3Cl)on2)n[nH]1	18.2%	5.9%[15.4 µM]	1.9	-0.6%	-1.4	4.4%	-0.5%
COc1cc(NC(=O)C(C)Oc2ccccc2)c(C(=O)O)cc1OC (configuration not stated)	-0.9%	0.0%	0.7	-9.0%	0.9	-19.6%	-1.1%
Cc1cc(C)c[n+](C2=C([O-])c3ccccc3C(=O)/C2=N\S(=O)(=O)c2cccs2)c1	0.9%	-13.9%	4.4	0.7%	5.1	-3.9%	-0.6%
O=S(=O)(NCc1ccccn1)c1cccc2nsnc12	-15.8%	-46.0%[inhibitor]	-0.8	1.1%	-2.9	-0.4%	0.0%
N#CCC(=O)Nc1ccc(C(=O)OCC(=O)N(Cc2ccccc2)C2CCS(=O)(=O)C2)cc1 (configuration not stated)	24.7%	5.2%	3.3	0.2%	-3.0	8.4%	1.9%
COc1ccc(N(C)C(=O)C2CCCN2S(=O)(=O)c2cccc3nsnc23)cc1 (configuration not stated)	8.2%	-0.9%	/	0.6%	-4.7	-5.3%	0.1%
CN(C)c1ccc(-c2cccc3nccn23)cc1	/	/	/	4.9%	-1.0	/	3.5%
O=C(Cn1cnc2ccccc2c1=O)NCC(=O)N1CCN(Cc2ccc3c(c2)OCO3)CC1	27.6%	-34.1%[inhibitor]	5.3	0.5%	-2.7	-1.7%	3.3%
O=C(CCNC(=O)N1CC(=O)Nc2ccccc21)Nc1ccc(Br)cc1F	15.7%	0.2%	1.1	-0.1%	-7.7	4.3%	3.0%
CC(=O)N/C(N)=N/c1nc2cc(C)ccc2o1	9.8%	7.1%	5.5	-5.5%	-4.9	4.0%	1.6%
CC(=O)c1ccc(OCc2cc(C(=O)N(C)C(C)c3ccon3)no2)cc1 (configuration not stated)	/	1.2%	/	11.9%	-2.0	-5.3%	1.6%
COc1ccc(S(=O)(=O)N2CCN(C/C=C/c3ccccc3)CC2)cc1F	3.3%	0.8%[15.4 µM]	/	/	-2.0	-9.8%	-0.3%
Cc1cc(=O)oc2ccc(OCC(=O)NCc3ccco3)cc12	2.5%	-24.5%	1.0	?	-2.5	-8.3%	/
CCOc1ccc(S(=O)(=O)N2CCN(C(=O)c3cc(C4CC4)nn3-c3ccccc3)CC2)cc1	/	0.4%[15.4 µM]	/	-2.0%	-2.2	?	-0.9%
Cc1cccc(C(=O)Nc2cccc(C(=O)N/N=C/c3ccc4c(c3)OCO4)c2)c1	29.0%	11.3%	3.3	/	1.9	13.8%	8.3%
CCc1ccccc1NC(=O)CN(C)C(=O)COC(=O)c1cccnc1Cl	/	?	/	-0.5%	-3.7	5.3%	2.9%
CSCCC(NC(=O)C1CCC(C)CC1)C(=O)NCc1ccco1 (configuration not stated)	9.1%	?	0.9	-0.1%	0.4	6.7%	-0.3%
CN(C)C(=O)CNC(=O)C1CCCCC1	28.8%	-3.3%	3.6	1.9%	-2.5	4.7%	-1.0%
Cc1ccc(NC(=S)Nc2cccc3ccccc23)cc1	-27.1%	7.4%	3.3	3.4%	-0.6	4.8%	0.1%
Cc1nnc(SCCn2c(N3CCC(Cc4ccccc4)CC3)nc3c2c(=O)[nH]c(=O)n3C)s1	-7.4%	-13.9%[15.4 µM]	5.4	/	-0.8	-16.3%	-0.9%
O=C(Nc1ccccc1C(=O)N1CCCC1)c1ccccc1	4.2%	-19.7%	1.7	-2.9%	-3.2	3.1%	/
CCc1nc(N2CCN(C(=S)NCCCOC)CC2)c2c3c(sc2n1)CCCC3	-1.7%	-7.4%	1.8	0.5%	-10.1	7.08µM*	?
CC(=O)Nc1sc2c(c1C(N)=O)CCCC2	29.7%	-3.9%	2.9	-4.3%	1.0	-4.6%	-2.7%
CCOC(=O)C1(C)CCN1C(=O)c1ccoc1 (configuration not stated)	/	/	/	-1.3%	-1.9	/	1.8%
CCc1nnc2n1N=C(c1cccc([N+](=O)[O-])c1)CS2	-4.5%	3.5%	7.7	-1.3%	-2.1	-2.4%	-1.1%
CC(NC(=O)NC(N)=O)(C(F)(F)F)C(F)(F)F	-6.2%	-6.2%	-5.2	-0.3%	0.8	7.2%	/
Clc1ccc(C(CCN2CCCC2)Cc2ccccc2)cc1 (configuration not stated)	-24.4%	-21.0%	0.5	/	-5.2	7.6%	2.0%
O=C(NCCCN1CCCC1=O)c1c(O)nc2ccccn2c1=O	6.2%	?	-0.2	4.7%	-2.2	?	-0.1%
CNC(=O)COC(=O)/C=C/c1nc2ccccc2s1	18.2%	-2.2%	1.7	-22.8%	-7.1	-9.7%	-0.3%
CCOc1ccc(/C(O)=C2/C(=O)C(=O)N(CCN(CC)CC)C2c2cccs2)cc1 (configuration not stated)	8.8%	?	3.9	-2.2%	-6.8	8.6%	1.7%
Cc1scc(C(=O)NNC(=S)NCC2CCCO2)c1-c1ccccc1 (configuration not stated)	10.6%	8.5%	0.2	0.5%	-4.0	3.8%	-1.3%
CSc1ncccc1C(=O)NC1CCCCCCC1	17.2%	?	-0.9	/	1.7	4.0%	2.1%
COc1cc(OC)c2c(-c3ccccc3)cc(=O)oc2c1C(CC(=O)N1CCOCC1)c1ccc2c(c1)OCO2 (configuration not stated)	-3.3%&-3.8%	/	-4.8&-2.0	2.1%	0.1	4.8%	1.9%
O=C(CCSc1nc(-c2ccco2)cc(C(F)(F)F)n1)N1CCN(c2ccccn2)CC1	-9.1%	?	1.2	-4.3%	-0.4	4.0%	0.3%
CC(C)(C)NC(=O)CN(Cc1cccs1)C(=O)CCC(=O)Nc1nccs1	5.9%	7.2%	1.9	2.7%	1.5	2.0%	/
O=C1c2cccc3cccc(c23)C(=O)N1c1cccc(O)c1	-19.3%	-2.6%	-5.0	/	3.4	8.5%	1.4%
O=C(CN1CCN(C(c2ccccc2)c2ccccc2)CC1)N1N=CCC1c1ccccc1 (configuration not stated)	14.9%	-2.7%[15.4 µM]	-0.1	/	0.7	?	-1.3%
COc1ccc(-n2c(=O)c(C)nc3cnc(OC)nc32)cc1	16.1%	/	14.5	/	/	/	0.1%
CCn1c(SC)nc(O)c(C(c2ccc(OC)c(O)c2)c2c(O)nc(SC)n(CC)c2=O)c1=O	?	-8.9%	2.9	-1.2%	-2.8	-48.9%	-1.5%
FC(F)(F)c1ccc(CN2C[C@@H]3C(c4ccc(Cl)nc4)C4(c5ccccc5)CC3(C4)[C@H]2c2ccccc2)cc1 (some centres not stated)	10.3%&4.1%	/	-7.4&-0.5	-0.3%	-2.4	-3.5%	3.3%
c1ccc(-c2nccc3ccccc23)cc1	/	7.2%[15.4 µM]	/	0.5%	-11.1	5.8%	2.3%
COc1ccc(-n2nnnc2SCC(=O)Nc2ccccc2)cc1	10.3%	-17.8%	1.7	0.0%	-2.4	9.0%	1.6%
COc1ccc(N2CCN(C(=O)CSc3nc4[nH]ncc4c(=O)n3-c3ccc(Br)cc3)CC2)cc1	-6.0%	5.8%	0.5	-0.8%	-5.6	-16.4%	1.9%
CNC(=S)SCCOc1ccccc1C	?	6.2%[15.4 µM]	-0.2	-0.8%	-3.3	-2.5%	9.3%
O=C(Nc1ccc2c(c1)OCO2)O[C@@H]1C[C@H]2CCCC(=O)N3CC[C@@H](C1)[C@@H]23	16.5%	-26.3%	-0.7	-1.1%	-0.7	-8.3%	0.5%
